Screening data: PubChem BioAssay, National Center for Advancing Translational Sciences (NCATS)
PINK1 modulator: PINK1 expression modulation | Potency, µM (titrated, usually from 76.6 µM), inactives show at the top dose activation (PINK1 increase), usual class: activators | actives 0.2% (n = 410,000) | PINK1 immunofluorescence, high-content cytometry, 24 h; active = well fitted activation curve with a large enough effect; inconclusive = small, poorly fitted or top-dose-only effect; inactive = flat fitted curve, though single readings scatter; cell line not stated here;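 further: potency means the concentration at half of the fitted maximal effect; % of control where 0% means no effect; nearly all actives have a fitted effect of over 65% in size; a mitochondrial uncoupler was the plate control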
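A stable cell line was treated with compounds at 5 concentrations for 24 hours, with CCCP as control. PINK1 levels and mitochondrial localization were measured by immunofluorescence with mitochondrial, cell and nuclear markers after fixation, read by laser-scanning cytometry.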
D2 ag: human D2 receptor agonism in beta-arrestin assay | actives 0.084% (n = 360,000) | P14416 | activation, % (no concentration beside the values) | DiscoveRx PathHunter D2 beta-arrestin, luminescence, 90 min; 100% = 57 uM dopamine signal | AID 624465; in the data active = activation above about 40%; inconclusive = about 15% to 40%; inactive = below about 15%; further: compound concentration not given in the record; the text of the record calls up to 30% inactive
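Agonist mode: compounds alone added to overnight-plated D2 PathHunter cells for 90 min at 37 C, with 57 uM final dopamine (EC100) defining full response. Beta-arrestin recruitment detected by chemiluminescent reagent, read after 1 h at ambient temperature.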
D2 PAM: human D2 receptor positive allosteric modulation; DiscoveRx D2 beta-arrestin cells, luminescence, 90 min; 100% = 57 uM dopamine signal; P14416; AID 624464; actives 0.23% (n = 360,000); potentiation, % (concentration not given with the values); active = potentiation of 50% or more; inconclusive = 30% to 50%; inactive = 30% or less;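 further: compound concentration not given in the record; tested on top of an EC20 dose of dopamine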
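PathHunter D2 cells, attached overnight at 37 deg C, received compound in DMSO plus dopamine at EC20 (50 nM final) for 90 min at 37 deg C. Beta-arrestin recruitment was read as luminescence after 1 h with detection reagent at ambient temperature.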
Six1-Eya2 blk: blocks human Six1 binding to Eya2; AlphaScreen GST-Six1/His-Eya2 binding, biochemical; active compounds read low; control for the full effect not named in the record; AID 651725; actives 0.56% (n = 360,000); Q15475+O00167; activity change, % (no concentration beside the values); in the data active = activity change below about -65%; inconclusive = about -30% to -65%; inactive = above about -30%; further: on the % scale 0 is the no-effect control and ±100 the full control effect
Target sequence (O00167 whole entry, looked up): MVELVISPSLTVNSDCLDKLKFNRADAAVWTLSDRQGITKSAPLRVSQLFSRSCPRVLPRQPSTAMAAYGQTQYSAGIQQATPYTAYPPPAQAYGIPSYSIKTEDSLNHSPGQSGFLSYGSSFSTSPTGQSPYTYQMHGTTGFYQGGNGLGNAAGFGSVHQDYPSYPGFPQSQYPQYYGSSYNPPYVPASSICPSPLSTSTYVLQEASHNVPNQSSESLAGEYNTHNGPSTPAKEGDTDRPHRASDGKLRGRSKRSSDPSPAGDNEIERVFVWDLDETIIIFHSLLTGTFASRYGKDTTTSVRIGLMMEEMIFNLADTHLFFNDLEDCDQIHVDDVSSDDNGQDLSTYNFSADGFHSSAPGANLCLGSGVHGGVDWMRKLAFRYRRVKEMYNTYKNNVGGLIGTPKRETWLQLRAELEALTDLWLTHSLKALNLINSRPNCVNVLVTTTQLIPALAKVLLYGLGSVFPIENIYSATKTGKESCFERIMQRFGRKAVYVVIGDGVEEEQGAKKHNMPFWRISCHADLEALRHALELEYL
Target sequence (Q15475 whole entry, looked up): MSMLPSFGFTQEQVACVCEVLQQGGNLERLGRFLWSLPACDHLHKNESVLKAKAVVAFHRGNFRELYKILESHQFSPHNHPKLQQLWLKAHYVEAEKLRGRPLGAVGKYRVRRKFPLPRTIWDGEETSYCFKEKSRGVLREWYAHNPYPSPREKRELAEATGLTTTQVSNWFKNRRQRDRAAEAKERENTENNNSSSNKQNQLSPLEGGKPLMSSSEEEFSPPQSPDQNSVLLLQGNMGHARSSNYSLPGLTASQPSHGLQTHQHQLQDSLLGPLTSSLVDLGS
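AlphaScreen with GST-Six1 and His-Eya2 (5X mix: 250 nM and 500 nM), glutathione donor and nickel acceptor beads; buffer 50 mM Tris pH 8.0, 300 mM NaCl, 1 mM TCEP; 1 h at 37 C in the dark.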
CtBP-E1A inh: blocks the CtBP interaction with E1A; AlphaScreen GST-E1A/His-CtBP binding, 1536-well; active compounds read low; control for the full effect not named in the record; activity change, % (test concentration not listed); actives 0.49% (n = 340,000); in the data active means activity change below about -65%; inconclusive means about -30% to -65%; inactive means above about -30%; further: on the % scale 0 is the no-effect control and ±100 the full control effect
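AlphaScreen with 125 nM GST-E1A and 125 nM His-CtBP (5X stocks) in Tris pH 8.0, 300 mM NaCl, BSA, Tween 20, TCEP. Compounds preincubated 2 h at 37 deg C, then glutathione donor/nickel acceptor beads added for 1 h at 37 deg C in dark.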
TRPML1 ag: agonists of human TRPML1 channel; actives 0.12% (n = 410,000); TRPML1-expressing cells, Ca2+ dye fluorescence, FDSS; host cell line not named in the record; reference of the full effect not given here; AID 624414; Q9GZU1; activation, % (concentration not given with the values); in the data active = activation above about 50%; inconclusive = about 30% to 50%; inactive = below about 30%; further: 0% is about no effect; the text of the record puts the active cut at 80%
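Tet-induced TRPML1-DL cells, 1,500 per well, cultured overnight, were loaded with a no-wash Ca2+ dye for 45–90 min. Calcium fluorescence was recorded on the FDSS for 110 s after compound addition, before the EC80 agonist (4 uM 54-4) was added.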
Active calls of the source: *; ? = inconclusive; . = not tested or not shown; & = joins results of further samples; [ ] = dose if it differs, or a comment.

Value order: PINK1 modulator, D2 ag, D2 PAM, Six1-Eya2 blk, CtBP-E1A inh, TRPML1 ag
Cc1cccc(OCC(=O)NNC(=O)C2CCN(c3ncnc4sc(C)c(C)c34)CC2)c1
  2.9%, -1.3, 9, -16, -22, 1.9
CCCCCCCNC(=O)COc1ccc2c(c1)C(=O)CC(C)(C)O2
  3.1%[38.3 µM], -1.4, -13, 6, 3, 1.8
CCOC(=O)Nc1nc2ccccc2s1
  -0.9%, -1.3, 8, 2, -4, 2.6
CCOC(=O)C1CCN(CC(=O)Nc2c(C(=O)OC)[nH]c3ccc(Cl)cc23)CC1
  0.5%, 8.3, 10, -9, -6, -1.3
COc1ccccc1NS(=O)(=O)c1cc(NC(=O)CNC(=O)c2ccc(C)s2)ccc1Cl
  0.2%, -2.9, -17, ?, ?, 2.7
O=C(NN1C(=O)NC2(CCCCC2)C1=O)c1cc(F)cc(F)c1
  -1.2%, -2.3, -18, 0, 15, 0.1
CCc1nc(SCC(=O)Nc2nnc(CC(C)C)s2)n[nH]1
  -3.3%, 0.2, 3, 11, 0, 0.5
Fc1ccc(CSc2ncnc3nc[nH]c23)cc1
  0.6%, 4.0, -3, -4, 6, 0.9
O=C(NNc1nc(-c2ccc(F)cc2)cs1)c1ccccc1
  1.0%, -3.0, 5, -7, -1, 1.3
COc1cc(N)c(Cl)cc1C(=O)OCC(=O)NCc1cccs1
  0.2%, -0.9, -5, 6, ., -0.1
Cc1ccc(CN(C)C(=O)c2cccc(S(=O)(=O)N3CCCC3)c2)cc1
  3.5%, 0.1, -5, -4, ., -1.4
Clc1ccc(/C=C/c2nc3ccccc3[nH]2)c(Cl)c1
  ?, 1.4, -9, 21, 24, -1.0
COc1ccc(/C(C)=N/NC(=O)C(NC(=O)c2ccccc2)c2n[nH]c(=O)c3ccccc23)c(OC)c1 (stereo not drawn)
  1.6%, 0.6, -2, 7, 4, -0.5
Cc1cc(Cl)ccc1N(CC(=O)N=Nc1c(O)[nH]c2ccccc12)S(C)(=O)=O
  ?, 0.4, -15, -18, 0, 1.6
CC(=O)Oc1ccc(Nc2ccccc2)cc1
  1.4%, 2.7, 3, -1, 3, 0.4
CC(C)CCNC(=O)CCC(=O)NNc1nc2ccccc2c2nc(-c3ccccc3)nn12
  3.0%&5.6%, -2.8, -5, 10, -1, -0.4&-1.0
NNC(=O)Nc1cccc(C(F)(F)F)c1
  0.3%, -7.4, -10, 12, 0, 0.4
Cc1cc(C(=O)NP(=O)(N2CCOCC2)N2CCOCC2)c(C)n1-c1ccc(Br)cc1
  4.6%, 0.0, -6, -8, -1, -0.7
O=C(CC1C(=O)NCCN1Cc1ccc(Cl)c(F)c1)NCC1CCOCC1 (stereo not drawn)
  1.7%, -1.7, -9, 3, ., 0.8
O=C(CN(C(=O)CNC(=O)c1ccco1)c1cccc(F)c1)NC1CCCCC1
  -2.1%, 4.5, 0, 3, -21, 0.1
COc1ccc(CNC(=O)C2CC(=O)N(C3CCCC3)C2)cc1 (stereo not drawn)
  -0.3%, -1.6, -9, 8, 2, 2.8
Clc1ccc(Cc2nn3c(Cn4nnc5ccccc54)nnc3s2)cc1
  -0.4%[38.3 µM], -2.5, -10, -2, -7, -0.3
Cc1c(NC(=O)c2ccc(C(=O)Nc3c(C)n(C)n(-c4ccccc4)c3=O)cc2)c(=O)n(-c2ccccc2)n1C
  0.0%, -1.9, -25, 10, ., 0.4
Cn1nc(-c2ccccc2)c(CSc2ccccc2)c1Cl
  9.0%, -2.7, -16, 72, 45, 2.5
CCCCc1cc(=O)oc2cc(OCC(=O)Nc3ccccn3)ccc12
  ?, 0.7, -8, 11, ., 0.3
Cn1cc(CNC(=O)C2CCC(=O)N(Cc3cccc(C(F)(F)F)c3)C2)cn1 (stereo not drawn)
  -1.0%, -2.9, -26, 12, 3, 0.7
Cc1ccc(N/C=C2\CCCCC2=O)c(C)c1
  1.1%, -1.5, -4, 4, -3, -1.0
CCCOc1ccc(F)cc1-c1cc(C(=O)Nc2ccc(OC)cc2OC)[nH]n1
  6.6%, 3.2, -7, -5, -6, -0.1
Cc1ccc(S(=O)(=O)N2CCCCC2)cc1NC(=O)COC(=O)c1cccc(O)c1
  1.5%, 1.2, -3, -5, -2, 0.9
CCn1cc(S(=O)(=O)N2CCc3ccccc3C2)cn1
  0.0%, 3.4, -8, -19, -8, 0.0
O=C(O)CCC(=O)OCC1CCCO1 (stereo not drawn)
  -2.5%, -5.3, 1, -1, 5, -0.2
Cc1nn(Cc2ccc(C(=O)N3CCN(C(=O)c4ccco4)CC3)o2)c(C)c1[N+](=O)[O-]
  -0.9%, -9.1, 6, 5, 1, 1.0
O=C(NCCC1=CCCCC1)C1CCC(CNc2nc(=S)[nH]c3ccccc23)CC1 (stereo not drawn)
  2.3%, -4.1, -2, 2, 7, 0.5
Cc1nc(-c2ccccc2OC(F)(F)F)[nH]c(=O)c1Cl
  -1.0%, -4.6, 0, -9, -27, -0.7
C[C@@H]1CN([C@@H](C)CO)C(=O)CCCn2nncc2CO[C@@H]1CN(C)C(=O)Nc1cccc2ccccc12
  -1.5%, -7.4, 1, 10, -2, -0.3
COCCNCCOCCOc1ccc(Cl)c(C)c1
  -0.4%, -3.3, -42, 3, 5, -0.4
O=C(Cc1cccc(NC(=O)C2CCN(S(=O)(=O)c3cccc([N+](=O)[O-])c3)CC2)c1)Nc1cccc(C(=O)N2CCOCC2)c1
  -0.1%, 4.0, 8, -8, -6, -0.8
Cn1cc(CCC(=O)N2CCCC(CCC(=O)NCc3ccc(F)c(F)c3)C2)cn1 (stereo not drawn)
  0.5%, -7.7, -5, 19, ., 0.8
CCCOc1ccc2cc(C(=O)NCc3ccccc3)c(=O)oc2c1
  8.0%, 0.0, -5, 7, 18, 0.6
COc1ccccc1/C=C/C(=O)OCC(=O)N1CCCCC1
  2.9%, -1.1, 17, 2, -4, 0.7

Next part; the last two above are carried over.
Value order: PINK1 modulator, D2 ag, D2 PAM, Six1-Eya2 blk, CtBP-E1A inh, TRPML1 ag
CCCOc1ccc2cc(C(=O)NCc3ccccc3)c(=O)oc2c1
  8.0%, 0.0, -5, 7, 18, 0.6
COc1ccccc1/C=C/C(=O)OCC(=O)N1CCCCC1
  2.9%, -1.1, 17, 2, -4, 0.7
NC(=O)CCn1ccc2ccccc21
  1.7%, -0.6, -2, 9, 0, 0.1
Cc1cc(C)cc(OCC(=O)N(C)CC(=O)Nc2ccc(N3CCOCC3)cc2)c1
  2.5%, -2.5, -38, -5, 7, -0.8
COc1ccc(CNC(=O)CN(C)Cc2ccccc2F)cc1OC
  -0.9%, -3.4, 0, 6, 3, 2.1
Cc1cn([C@H]2C[C@H](O)[C@@H](CCC(=O)NCCN3CCCCC3)O2)c(=O)[nH]c1=O
  3.3%, -1.3, 0, 2, 2, -0.3
CCC(C)NC(=O)CSc1nnc(-c2ccc(C(C)(C)C)cc2)n1C (stereo not drawn)
  -2.2%[38.3 µM], -0.8, -2, 2, -2, 0.3
Cc1noc(C(=O)Nc2cccnc2)c1Cl
  3.5%, -0.8, -4, 23, 0, -1.0
CN(C)CCNc1ncnc2c1sc1nc(N3CCCC3)c3c(c12)CC(C)(C)OC3
  -0.1%, 0.4, -18, -13, -23, 0.9
CCN(CC)S(=O)(=O)c1cccc(C(=O)N[C@H](C(=O)NCc2ccc(Cl)cc2)C(C)C)c1
  0.1%, -3.2, -8, -5, -2, 1.1
CCOc1ccc(OCC)c(S(=O)(=O)NCc2ccccn2)c1
  ., 1.3, -1, 3, 8, 0.2
COc1ccc(C2N(Cc3ccccc3)CC(=O)N2/N=C(\C)c2ccccc2)cc1 (stereo not drawn)
  0.7%, -1.8, -31, 3, -4, 0.5
COc1cccc(NC(=O)CN(C)C(=O)/C=C/c2cn(-c3ccccc3)nc2-c2cccs2)c1
  -0.3%, 4.9, -2, -4, -2, 2.5
Cn1nc(-c2ccc(OCC(=O)NCC3CCCO3)cc2)c2ccccc2c1=O (stereo not drawn)
  -1.4%, 5.1, 11, -1, 0, -0.4
OCCNc1nc(N2CCCC2)nc(N2CCCC2)n1
  1.1%, -3.8, -2, 9, 5, 0.7
Cc1nnc(SCCn2c(N3CCN(Cc4ccccc4)CC3)nc3c2c(=O)[nH]c(=O)n3C)s1
  2.4%[38.3 µM], -1.1, -10, 0, -6, -0.1
CCc1ccc(N2CC34C=CC(O3)C(C(=O)OC)C4C2=O)cc1 (stereo not drawn)
  3.6%, 1.5, -2, 2, 4, 0.1
CN(C)S(=O)(=O)c1cccc(C(=O)NCCCn2ccnc2)c1
  -0.8%, -2.7, -10, -12, 8, -0.3
COc1cc(OC)cc(C(=O)N[C@H](C(=O)Nc2ccc(S(=O)(=O)N(C)C)cc2)C(C)C)c1
  0.7%, 0.5, -14, 0, 10, 0.9
CSc1ccc(S(=O)(=O)NCc2ccc(C)cc2)cc1
  -5.8%[38.3 µM], -2.5, -6, 24, 53, 0.5
COc1ccc(CCNC(=O)CSc2nnc(-c3ccccc3)c3ccccc23)cc1OC
  3.0%, -3.7, -19, -13, -11, 4.0
O=S(=O)(c1ccccc1)c1nc(NCc2ccccc2)sc1Cl
  4.6%, -0.8, -10, -8, 6, 1.0
Cc1ccc(OCCn2cnc3c(N)ncnc32)cc1
  -0.1%, 1.2, 12, 5, 3, 3.5
N#C/C(=C\c1ccc(O)cc1)c1nc2ccccc2o1
  ?, -7.1, -8, -28, -17, 9.3
CC(C)CC(N)c1csc(Nc2cnccn2)n1 (stereo not drawn)
  1.5%, -4.6, -6, ?, -75*, -0.3
CCOC(=O)C1=C(C)NC(=O)NC1c1ccc(OC)c(CN2CCOCC2)c1 (stereo not drawn)
  -0.7%, 0.5, -15, 4, 12, 1.0
CCCNC(=O)CS(=O)Cc1nc(-c2cccc(OC)c2)oc1C (stereo not drawn)
  2.6%, -4.6, -3, 3, 4, -0.3
CCN(CC)c1ccc(-c2nn3c(-c4cccnc4)nnc3s2)cc1
  1.0%, -3.5, -4, -7, -12, 0.7
CCC1=C(OC(=O)N(CC)CC)N2C(=O)OC(=NCC(=O)OC)[C@]2(C)[C@H]2C1=CC[C@H]1C(=O)N(CC)C(=O)[C@H]12
  0.2%, -2.8, -7, 2, -5, -0.4
CCCC1=Nc2cc(C(=O)NCc3ccco3)ccc2Sc2ccccc21
  -2.0%, -2.3, -6, -18, 2, 0.1
CCOC(=O)c1ccccc1NC(=O)c1cccc(F)c1
  9.5%, -5.2, -7, 5, 19, 0.3
O=C(Nc1ccc2nc(-c3ccccc3)[nH]c2c1)c1ccco1
  8.1%, 3.2, 4, ?, -19, 0.6
COc1nc(C)ccc1-c1noc(-c2ccco2)n1
  13%[38.3 µM], -0.9, 0, -2, -2, -0.8
CC(=O)Nc1cccc(-c2ccnc3c2CC(C(=O)NCc2cccnc2)O3)c1 (stereo not drawn)
  5.9%, -3.8, -4, 2, -21, 0.0
